MLL AF4-AF9 inh – MLL-AF4/AF9 protein interaction inhibition; P42568; AlphaScreen, biotin-AF4 peptide binding to FLAG-AF9; inhibition, % at 10 µM; hit rate 0.47% among 350,000;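 active = every replicate reaching a set inhibition limit, whatever the replicate mean, cut at about 25% in these data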;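 note: 0% = plate neutral control median and 100% = total signal loss; the record names both 10 and 1 µM as test concentration; the first replicate is given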
Target sequence (P42568 whole entry, looked up): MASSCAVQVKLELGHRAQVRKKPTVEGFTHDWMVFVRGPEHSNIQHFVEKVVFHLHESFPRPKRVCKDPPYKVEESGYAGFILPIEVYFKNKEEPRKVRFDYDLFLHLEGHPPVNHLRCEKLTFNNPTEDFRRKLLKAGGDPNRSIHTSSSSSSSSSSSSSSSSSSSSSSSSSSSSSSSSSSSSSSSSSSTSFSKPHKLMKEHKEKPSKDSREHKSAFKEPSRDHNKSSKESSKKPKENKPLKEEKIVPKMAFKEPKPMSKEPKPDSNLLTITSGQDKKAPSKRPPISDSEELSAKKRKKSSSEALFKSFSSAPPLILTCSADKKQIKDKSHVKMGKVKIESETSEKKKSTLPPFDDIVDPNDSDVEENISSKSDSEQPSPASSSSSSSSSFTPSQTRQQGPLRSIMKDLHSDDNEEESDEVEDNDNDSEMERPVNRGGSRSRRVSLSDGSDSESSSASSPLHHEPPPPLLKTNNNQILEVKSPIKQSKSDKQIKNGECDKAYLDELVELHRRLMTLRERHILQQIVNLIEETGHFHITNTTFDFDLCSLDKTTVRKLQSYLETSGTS
rRNA inh HTS – selective bacterial rRNA inhibition in E. coli; E. coli WT GFP vs humanized-ribosome RFP mutants, fluorescence, 24 h; active compounds read low; DMSO median 0, no signal -100; GFP signal change (wild-type ribosome), % (test concentration not listed); hit rate 1.6% among 350,000;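 active = significant combined selectivity score with lowered wild-type GFP, culture density cut under 30%, mutant RFP and density less affected; inactive = any of these conditions unmet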; note: one replicate is shown; some compounds called inactive have numbers as strong as hits
rRNA inh HTS OD600 – further read-out of rRNA inh HTS, marked with its call; OD600 change, %; measured here: OD600 growth;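 optical density of the mix in the first replicate; 0 = DMSO median and -100 = no signal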
rRNA inh HTS RFP – also measured in rRNA inh HTS; calls as there; RFP signal change, %; measured here: RFP humanized mutant strains;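 first replicate; 0 = DMSO median and -100 = no signal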
* = called active by the depositor; & = joins results of further samples.

compound	MLL AF4-AF9 inh	rRNA inh HTS	rRNA inh HTS OD600	rRNA inh HTS RFP
C[C@H]1CCCCO[C@H](CN(C)Cc2ccc(C(=O)O)cc2)[C@@H](C)CN([C@@H](C)CO)C(=O)c2cc(NS(=O)(=O)c3ccc(F)cc3)ccc2O1	-4.7	3	3	0.6
C[C@@H]1CCCCO[C@@H](CN(C)C(=O)CCC(F)(F)F)[C@@H](C)CN([C@H](C)CO)C(=O)c2cc(NC(=O)c3ccccc3)ccc2O1	6.4	4	4	1.5
CO[C@H]1CN(C)C(=O)c2cc(NC(=O)c3ccccc3F)ccc2OC[C@@H](C)NC[C@@H]1C	-1.5	2	3	-0.7
Cc1nc(C(F)(F)F)ccc1C(=O)N1CCC1(C)C(=O)NS(=O)(=O)c1ccc2c(c1)CCO2 (configuration not stated)	-5.2	7	17	0.3
COc1ccc(S(=O)(=O)Nc2ccc3c(c2)CC(=O)N([C@H](C)CO)C[C@@H](C)[C@H](CN(C)C(=O)Nc2ccc(C(F)(F)F)cc2)O3)cc1	-2.0	5	6	1.4
C[C@@H]1CCCCO[C@@H](CN(C)Cc2ccc(C(=O)O)cc2)[C@H](C)CN([C@H](C)CO)C(=O)c2cc(NS(=O)(=O)c3cccs3)ccc2O1	-4.5	-3	7	-3.8
C/C=C/c1ccccc1[C@H]1[C@@H](C#N)N(C(=O)Cc2ccccn2)[C@@H]1CO	-3.0	-1	7	1.5
C[C@@H]1CN([C@@H](C)CO)C(=O)Cc2cc(NC(=O)CCC(F)(F)F)ccc2O[C@@H]1CN(C)Cc1ccccc1	-1.5	-1	2	0.7
C[C@@H]1CN([C@@H](C)CO)C(=O)c2c(c3ccccc3n2C)-c2ccccc2CO[C@@H]1CN(C)C(=O)C1CC1	-2.7	1	-3	-3.3
CC1(C(=O)NS(=O)(=O)c2cccc(F)c2)CCN1C(=O)CCc1ccccc1 (configuration not stated)	-1.9	15	20	-0.3
CO[C@H]1CN(C)C(=O)c2ccc(NC(=O)C3CCC3)cc2OC[C@@H](C)N(Cc2nccs2)C[C@H]1C	0.7	-5	-1	3.2
Cc1ccc(-c2nc3ccc(Br)cn3c2CC(C)(C)C)cc1	-1.4	14	16	5.1
O=S1(=O)c2ccc(Br)cc2-n2nncc2CN1Cc1cccc(Cl)c1	-0.9	-6	-17	-5.1
COc1ccc2c3c([nH]c2c1)[C@@H](CO)N(C(=O)Nc1ccccc1F)CC31CCN(C(=O)c2ccccc2F)CC1	2.2	-5	7	3.7
C[C@H]1CCCCO[C@@H](CN(C)C(=O)Nc2ccc(C(F)(F)F)cc2)[C@@H](C)CN([C@@H](C)CO)C(=O)c2cc(NS(=O)(=O)c3ccc(F)cc3)ccc2O1	-4.5	6	8	-0.2
CN(C)C(=O)C[C@@H]1CC[C@H](NC(=O)c2ccc(F)cc2)[C@H](CO)O1	0.8	-1	3	0.3
C[C@@H]1CN([C@@H](C)CO)C(=O)c2cc(NC(=O)Nc3ccccc3)ccc2O[C@@H](C)CCCCO[C@@H]1CN(C)C(=O)c1ccccc1	-7.7	-2	-1	1.2
C[C@@H]1CCCCO[C@H](CN(C)C)[C@@H](C)CN([C@H](C)CO)C(=O)c2cc(NC(=O)NC3CCCCC3)ccc2O1	-8.5	7	9	-1.1
C[C@@H]1CN([C@@H](C)CO)C(=O)c2cccc(NC(=O)CCCCCC(=O)Nc3ccccc3N)c2O[C@@H]1CN(C)C(=O)Nc1ccc(F)cc1	-0.4	-1	3	2.4
C[C@@H]1CCCCO[C@H](CN(C)Cc2ccc3c(c2)OCO3)[C@H](C)CN([C@H](C)CO)C(=O)c2cc(N(C)C)ccc2O1	5.6&6.3	-3	0	0.1
CCCNC(=O)c1cc2c(c(-c3cccc(-c4ccc(F)cc4)c3)n1)[C@H](CCO)N([S@@](=O)C(C)(C)C)C2	3.6	-6	-22	15
COCC(=O)N(C)C[C@H]1Oc2ncc(C#CC(C)(C)O)cc2C(=O)N([C@H](C)CO)C[C@@H]1C	-0.5	7	22	-0.9
CO[C@@H]1CN(C)C(=O)c2ccc(NC(=O)C3CC3)cc2OC[C@@H](C)N(C(=O)c2ccccc2)C[C@@H]1C	-0.2	1	-2	0.1
CN(C)C(=O)c1ccc(-c2ccccc2[C@H]2[C@@H](CO)N(C(=O)C3CCC3)[C@H]2C#N)cc1	-0.8	5	12	0.9
COc1cccc(C(C)=C2SC(=S)NC2=O)c1	-2.4	-51	-74	-20
COc1ccc(-c2cc(C(=O)Nc3ccc(OC)c(OC)c3)[nH]n2)c(C)c1	-2.5	-3	3	0.0
Cc1ccc(NC(=O)C2(C)CCN2C(=O)c2ccccc2CCc2ccccc2)cc1C (configuration not stated)	-4.5	3	10	2.9
C[C@H](CO)N1C[C@H](C)[C@@H](CN(C)CC2CCCCC2)Oc2ccc(NS(=O)(=O)c3ccccc3)cc2C1=O	-2.8	1	5	0.4
Cc1cc2c(nc1C)CCCN2S(=O)(=O)c1ccc(C(F)(F)F)cc1	-1.6	-10	-37	-0.4
COCC#Cc1cnc2c(c1)C(=O)N([C@@H](C)CO)C[C@@H](C)[C@@H](CN(C)C(=O)CN1CCOCC1)O2	-3.9	2	9	2.2
C[C@H]1CCCCO[C@H](CN(C)C(=O)Nc2cccc3ccccc23)[C@@H](C)CN([C@@H](C)CO)C(=O)c2cc(NC(=O)Nc3cccc4ccccc34)ccc2O1	-4.7	0	7	-1.9
C[C@H](CO)N1C[C@H](C)[C@@H](CN(C)Cc2ccc(C(=O)Nc3ccccc3N)cc2)Oc2ccc(NC(=O)C3CC3)cc2CC1=O	0.8	0	1	0.0

Looked up above:
rRNA inh HTS result of C[C@H](CO)N1C[C@H](C)[C@@H](CN(C)CC2CCCCC2)Oc2ccc(NS(=O)(=O)c3ccccc3)cc2C1=O = 1
rRNA inh HTS result of COc1ccc(-c2cc(C(=O)Nc3ccc(OC)c(OC)c3)[nH]n2)c(C)c1 = -3

New compounds follow:
Every second line gives: MLL AF4-AF9 inh | rRNA inh HTS | rRNA inh HTS OD600 | rRNA inh HTS RFP
> COc1cccc(S(=O)(=O)N2CCCCN3[C@H](CO)[C@H](c4ccc(C#CC(C)C)cc4)[C@H]3C2)c1
→ 10 | -58 | -75 | -8.0
> O=C(NCc1ccc(F)cc1)c1cc(C2CCCCN2C(=O)c2ccccc2)on1 (configuration not stated)
→ -2.2 | 1 | -22 | 11
> O=C(C[C@@H]1CC[C@H]2[C@@H](COC[C@H](O)CN2S(=O)(=O)c2cccc(Cl)c2)O1)Nc1ccccc1
→ 0.0 | -7 | -4 | -0.9
> C[C@@H]1CCCCO[C@H](CN(C)Cc2ccc(C(=O)O)cc2)[C@@H](C)CN([C@@H](C)CO)C(=O)c2cc(NC(=O)C3CCCCC3)ccc2O1
→ -1.6 | 5 | 7 | 0.0
> O=C(Nc1c(Cl)cccc1Cl)Oc1cccc2cccnc12
→ 1.9 | -33 | -53 | -1.9
> Cc1ccc(S(=O)(=O)N(C)C[C@H]2Oc3ccc(NC(=O)NC(C)C)cc3C(=O)N([C@@H](C)CO)C[C@H]2C)cc1
→ -0.5 | -2 | -9 | 0.6
> C[C@H]1CN([C@@H](C)CO)C(=O)c2cc(C#CCN(C)C)cnc2O[C@@H]1CN(C)C(=O)c1ccc2c(c1)OCO2
→ -1.7 | 5 | 7 | -2.3
> C[C@H](NC(=O)[C@H]1[C@H](CO)[C@H]2Cn3c(ccc(-c4cccnc4)c3=O)[C@H]2N1C)c1ccccc1
→ 0.7 | 1 | 6 | -0.3
> COc1ccc(S(=O)(=O)N(C)C[C@@H]2Oc3ccc(NS(C)(=O)=O)cc3CC(=O)N([C@@H](C)CO)C[C@@H]2C)cc1
→ -4.1 | 2 | 11 | -2.0
> CCNC(=O)C[C@H]1CC[C@@H]2[C@H](COc3ccc(NC(=O)c4cc(C)on4)cc3C(=O)N2C)O1
→ 2.1 | 0 | -7 | 3.8

The final four records of the section above open the next one.
Every second line gives: MLL AF4-AF9 inh | rRNA inh HTS | rRNA inh HTS OD600 | rRNA inh HTS RFP
> C[C@H]1CN([C@@H](C)CO)C(=O)c2cc(C#CCN(C)C)cnc2O[C@@H]1CN(C)C(=O)c1ccc2c(c1)OCO2
→ -1.7 | 5 | 7 | -2.3
> C[C@H](NC(=O)[C@H]1[C@H](CO)[C@H]2Cn3c(ccc(-c4cccnc4)c3=O)[C@H]2N1C)c1ccccc1
→ 0.7 | 1 | 6 | -0.3
> COc1ccc(S(=O)(=O)N(C)C[C@@H]2Oc3ccc(NS(C)(=O)=O)cc3CC(=O)N([C@@H](C)CO)C[C@@H]2C)cc1
→ -4.1 | 2 | 11 | -2.0
> CCNC(=O)C[C@H]1CC[C@@H]2[C@H](COc3ccc(NC(=O)c4cc(C)on4)cc3C(=O)N2C)O1
→ 2.1 | 0 | -7 | 3.8
> C[C@H]1CN([C@@H](C)CO)C(=O)CCCn2cc(nn2)CO[C@H]1CN(C)Cc1ccc(Oc2ccccc2)cc1
→ 2.2 | -3 | -16 | -0.4
> Cc1ccc2nc(-c3ccccc3)c(Cc3ccccc3C(F)(F)F)n2c1
→ -3.6 | -26 | -15 | 2.7
> COc1ccc(N2CCN(C(=O)C(=O)c3cc(OC)c(OC)c(OC)c3)CC2)cc1
→ 1.8 | 1 | 6 | -2.8
> CCNC(=O)C[C@H]1CC[C@@H]2[C@H](COC[C@@H](O)CN2C(=O)CC)O1
→ -2.2 | 3 | 8 | 2.4
> COc1ccc(S(=O)(=O)N(C)C[C@H]2Oc3ccc(NC(=O)Nc4ccc5c(c4)OCO5)cc3C(=O)N([C@@H](C)CO)C[C@H]2C)cc1
→ 1.6 | 1 | -18 | -6.3
> C[C@H]1CCCCO[C@H](CN(C)S(C)(=O)=O)[C@@H](C)CN([C@@H](C)CO)C(=O)c2cc(NC(=O)c3ccncc3)ccc2O1
→ -38 | 3 | 6 | -2.1
> CC(=O)Nc1cccc(-c2ccnc3c2CC(C)(C(=O)Nc2ccc(Cl)c(C(F)(F)F)c2)O3)c1 (configuration not stated)
→ -12 | -6 | -31 | 1.6
> COc1ccc(NC(=O)N(C)C[C@@H]2Oc3ccc(N(C)C)cc3C(=O)N([C@@H](C)CO)C[C@@H]2C)cc1
→ 0.5 | 0 | -4 | 2.9
> CCC(=O)Nc1ccc2c(c1)C(=O)N(C)[C@@H]1CC[C@H](CC(=O)N[C@H](C)c3ccccc3)O[C@@H]1CO2
→ -0.2 | -1 | -8 | -2.6
> C[C@H]1CN([C@@H](C)CO)C(=O)c2cc(C#CC3CC3)cnc2O[C@H]1CN(C)C(=O)Nc1ccc(F)cc1
→ -0.5 | 3 | 9 | -5.0
> O=C(C[C@@H]1C=C[C@H](NC(=O)CCN2CCCCC2)[C@@H](CO)O1)Nc1ccc(-c2ccccc2)cc1
→ 4.4 | 1 | -6 | 1.4
> C[C@@H]1CN([C@H](C)CO)C(=O)c2cc(NS(=O)(=O)c3ccccc3)ccc2O[C@@H](C)CCCCO[C@H]1CN(C)Cc1ccc(Cl)c(Cl)c1
→ 7.3 | -6 | -27 | 18
> CC(C)CC#Cc1ccc2c(c1)O[C@H](CN(C)C(=O)Cc1ccccc1)[C@H](C)CN([C@@H](C)CO)S2(=O)=O
→ -4.2 | -2 | -7 | 0.0
> COc1cc(NC(=O)Nc2cccn3nc(COCCO)nc23)cc(OC)c1OC
→ 1.0 | -13 | 6 | -0.2
> CCCNC(=O)N1CC2(CN(Cc3ccccn3)C2)c2c(n(C)c3cc(OC)ccc23)[C@H]1CO
→ 11 | -1 | 5 | 1.9
> CCCCNC(=O)C1(C)CCCCN1C(=O)c1ccc(F)c(C)c1 (configuration not stated)
→ -19 | 5 | 14 | -2.6
> C[C@H](CO)N1C[C@H](C)[C@@H](CN(C)S(=O)(=O)c2ccc(Oc3ccccc3)nc2)OCc2cn(nn2)CCCC1=O
→ 0.1&-1.5 | 3&-2 | -3&1 | -1.0&1.1
> Cc1ccc(F)c(S(=O)(=O)NC(=O)C2(C)CCN2C(=O)Cc2ccccc2Cl)c1 (configuration not stated)
→ -3.5 | 7 | 12 | 0.4
> Cc1noc(C)c1NC(=O)N(C)C[C@@H]1Oc2ccc(NC(=O)NC(C)C)cc2C(=O)N([C@H](C)CO)C[C@H]1C
→ -4.5 | 2 | 13 | -4.8
> COc1ccccc1CN1[C@@H](CO)[C@@H]2c3ccccc3N(C(=O)c3ccncc3)C[C@@H]21
→ -1.8 | 10 | 9 | 0.4
> COCc1cn(CC[C@@H]2CC[C@H](NC(=O)Nc3ccccc3)[C@@H](CO)O2)nn1
→ -11 | 3 | -3 | -2.6
> CO[C@@H]1CN(C)C(=O)c2cc(NC(=O)c3ccccc3)ccc2OC[C@@H](C)N(C(=O)C2CC2)C[C@H]1C
→ 1.3 | 3 | 5 | -2.2
> Cc1noc(C)c1NC(=O)NCC[C@H]1CC[C@@H](NC(=O)c2ccncc2)[C@@H](CO)O1
→ 5.3 | -2 | -2 | -2.4
> O=C1NC[C@H](CCCCN2C[C@H](Cc3ccccc3)N(Cc3ccccc3)C(=O)C2=O)N(CCc2ccccc2)C1=O
→ 0.1 | -33 | -33 | 0.5

Three entries out of the list above, sorted by the number in MLL AF4-AF9 inh, falling.
SMILES	MLL AF4-AF9 inh	rRNA inh HTS	rRNA inh HTS OD600	rRNA inh HTS RFP
Cc1noc(C)c1NC(=O)NCC[C@H]1CC[C@@H](NC(=O)c2ccncc2)[C@@H](CO)O1	5.3	-2	-2	-2.4
CO[C@@H]1CN(C)C(=O)c2cc(NC(=O)c3ccccc3)ccc2OC[C@@H](C)N(C(=O)C2CC2)C[C@H]1C	1.3	3	5	-2.2
COCc1cn(CC[C@@H]2CC[C@H](NC(=O)Nc3ccccc3)[C@@H](CO)O2)nn1	-11	3	-3	-2.6

High-throughput results from PubChem.

This is a subset. The share of hits here may be higher or lower than overall.
